Vif A3G = inhibitors of Vif binding to APOBEC3G peptide, primary screen, biochemical, TR-FRET, GST-Vif 1-94, biotin-A3G peptide, dose response retest (AID 1117319) | TR-FRET GST-Vif / biotin-A3G peptide binding; higher % means a stronger effect; test concentration not given here; strong numbers were not always called active | inhibition, %, or IC50 in µM where a hit was titrated | hit rate 0.57% among 260,000;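 active = above the screen mean plus three standard deviations and confirmed in dose response; inconclusive = results disagree or hit not tested in dose response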;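 note: Vif residues 1-94 fused to GST binding biotinylated APOBEC3G peptide 110-148; 0% = full assay without inhibitor and 100% = GST in place of GST-Vif; retest series ran down from 100 µM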
MLL AF4-AF9 inh = inhibitors of AF4 peptide binding to AF9, primary screen, biochemical, AlphaScreen, biotin-AF4 peptide, FLAG-AF9, single point; inhibition, % at 10 µM; hit rate 0.47% among 350,000;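 active = every replicate reaching a set inhibition limit, whatever the replicate mean, cut at about 25% in these data; inconclusive = mean inhibition reaches that limit but some replicates miss it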;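 note: 0% = plate neutral control median and 100% = total signal loss; the record names both 10 and 1 µM as test concentration; the first replicate is given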
Target sequence (P42568 whole entry, looked up): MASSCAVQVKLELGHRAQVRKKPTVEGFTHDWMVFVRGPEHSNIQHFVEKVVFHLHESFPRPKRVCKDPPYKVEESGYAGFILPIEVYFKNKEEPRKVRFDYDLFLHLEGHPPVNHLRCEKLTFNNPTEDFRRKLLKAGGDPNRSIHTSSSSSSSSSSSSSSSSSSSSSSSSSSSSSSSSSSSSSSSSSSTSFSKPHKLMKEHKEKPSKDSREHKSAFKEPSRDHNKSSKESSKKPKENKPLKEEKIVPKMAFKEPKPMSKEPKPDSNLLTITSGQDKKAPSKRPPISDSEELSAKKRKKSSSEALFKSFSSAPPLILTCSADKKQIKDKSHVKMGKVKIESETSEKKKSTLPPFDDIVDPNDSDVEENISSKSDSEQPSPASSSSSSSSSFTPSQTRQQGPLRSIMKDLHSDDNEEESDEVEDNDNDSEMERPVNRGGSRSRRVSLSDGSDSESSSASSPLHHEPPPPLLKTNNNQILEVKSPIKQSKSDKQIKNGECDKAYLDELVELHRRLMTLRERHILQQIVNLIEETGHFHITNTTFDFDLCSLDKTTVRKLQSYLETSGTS
HNF4A DNA FP = change in binding of human HNF4A to DNA, primary screen, biochemical, fluorescence polarization, FITC-DNA | Hepatocyte nuclear factor 4-alpha (Homo sapiens), P41235 | 1 h | activity change, % at 10 µM | hit rate 0.3% among 360,000 | AID 1224865, 2016; in the data active = activity change above about 30%, passing the limit was not always enough;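 note: controls were the assay level and a saturating level of protein; the project sought stronger binding though the title names inhibitors; some compounds called inactive have numbers as strong as hits; positive values seem to mean higher polarization but the record does not say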
Target sequence (P41235 whole entry, looked up): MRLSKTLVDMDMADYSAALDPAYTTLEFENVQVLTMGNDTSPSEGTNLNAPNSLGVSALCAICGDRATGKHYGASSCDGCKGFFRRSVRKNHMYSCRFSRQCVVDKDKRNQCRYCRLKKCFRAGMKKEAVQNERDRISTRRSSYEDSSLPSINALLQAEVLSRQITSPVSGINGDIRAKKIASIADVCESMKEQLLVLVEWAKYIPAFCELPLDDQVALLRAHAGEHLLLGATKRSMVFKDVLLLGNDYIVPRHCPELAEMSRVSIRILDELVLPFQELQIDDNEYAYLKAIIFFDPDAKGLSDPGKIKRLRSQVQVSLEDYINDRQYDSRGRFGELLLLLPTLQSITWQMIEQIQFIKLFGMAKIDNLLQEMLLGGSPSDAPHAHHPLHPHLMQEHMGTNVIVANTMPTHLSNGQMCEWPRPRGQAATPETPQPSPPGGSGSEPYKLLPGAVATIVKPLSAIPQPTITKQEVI
Ecoli growth = E. coli growth inhibition, primary screen, OD600; Escherichia coli growth, 23 h; stronger effect = lower value; OD600 absorbance (no concentration beside the values); hit rate 0.21% among 330,000; AID 1053175, 2014;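 active = OD600 absorbance below the run mean of sample wells minus 3.6 SD, in any replicate, cut at about 0.56 in these data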;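 note: stock transfer was 300 nL into about 60 µL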
UCH37 inh = inhibitors of human UCH37 deubiquitinase, primary screen, biochemical, Ub-AMC cleavage, fluorescence | purified proteasome/UCH37 | inhibition, % (no concentration beside the values) | hit rate 0.33% among 330,000 | AID 588478, 2011;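 active = mean of two replicates above 20%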;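 note: 0% = compound-free wells with enzyme and 100% = wells lacking proteasome; stock transfer was 100 nL into about 20 µL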
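Material: Human UCH37 enzyme supplied as purified proteasome complex | Schedule: 30 min compound-proteasome preincubation then 25 min substrate reaction, room temperature | Detection: AMC fluorescence from Ub-AMC cleavage, excitation 355 nm, emission 460 nm | Benchmarks: Wells without proteasome as full block, compound-free enzyme plus substrate as uninhibited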
FGF22 binding = binders of human FGF22 protein, primary screen, FGF22 synaptogenesis inhibitor project, biophysical, thermal shift, single point; Fibroblast growth factor 22 (Homo sapiens), Q9HCT0; recombinant FGF22 thermal shift, SYPRO orange fluorescence; percent of sucrose octasulfate shift, DMSO zero; calls only at 9.99 µM; hit rate 1.5% among 340,000; AID 651658, 2012;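 active = melting point raised past a set limit in the mean and every replicate; inconclusive = no clear call; three in four hits are not shown here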
RanGTP-Impb inh = inhibitors of RanGTP-importin-beta interaction, primary screen, biochemical, FRET, CFP-Ran, YFP-importin-beta, homogeneous. cell-free CFP-Ran/YFP-importin-beta FRET ratio. hit rate 1.1% among 300,000. inhibition, % (test concentration not listed). Ran GTPase (GTP-bound) - importin-beta complex;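 active = most replicates above 15%; inconclusive = exactly half above 15%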;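 note: 0% = DMSO wells and 100% = Ran loaded with GDP instead of GTP; wells of about 40 µL received 100 nL stock; the first replicate is given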
Numbers without * were called inactive; i = inactive; u = inconclusive; x = no result given.

Sequence of screens: Vif A3G, MLL AF4-AF9 inh, HNF4A DNA FP, Ecoli growth, UCH37 inh, FGF22 binding, RanGTP-Impb inh
1) NC(=O)N/N=C/c1ccc(-n2nncc2-c2ccc(Cl)cc2)cc1
    x, 9.0, 0.4, x, x, i, 2.3
2) Cn1c(SCc2nc(-c3ccc(Cl)cc3)no2)nnc1-c1ccccc1
    7%, 2.2, -2.1, 0.73, -0.3, i, 5.3
3) O=C(O)CCCn1c(=O)c2cccn2c2ccc(F)cc21
    -3%, 0.8, 4.2, 0.7, 0.7, i, -0.8
4) CCCCn1c(N)nc2ccccc21
    -2%, x, 5.1, 0.71, 4.8, x, 3.5
5) CCOc1ccc(CN(C)c2ccc(S(=O)(=O)N3CCN(C)CC3)cc2[N+](=O)[O-])cc1OC
    -8%, x, 0.0, 0.73, -1.4, x, x
6) C=CCn1c(/N=C/c2ccc(N(C)C)cc2)nc2ccccc21
    -2%, x, 59*, x, x, x, 2.7
7) Nc1nonc1-n1nnc(C(=O)N/N=C/c2cccc(Cl)c2)c1-c1cccs1
    x, -6.4, -1.1, x, x, i, u
8) COc1ccc2nc(N3C(=O)C(O)=C(C(=O)c4ccco4)C3c3ccco3)sc2c1 (stereo not drawn)
    x, 2.5, 1.0, x, x, i, x
9) COc1cccc(OCC(=O)NNC(=O)c2cccs2)c1
    -6%, x, -0.3, 0.75, 1.0, x, 4.6
10) O=C(CCNC(=O)c1ccc(Br)cc1)Nc1cccc(S(=O)(=O)N2CCCCC2)c1
    x, -0.4, -1.1, x, x, i, 8.8
11) CC(NC(=O)c1ccc(Br)cc1)C(=O)NC1=NCCS1 (stereo not drawn)
    -7%, -2.0, -1.2, 0.66, 2.3, i, 0.1
12) O=c1ccc(S(=O)(=O)N2CCC(Cc3ccccc3)CC2)c[nH]1
    9%, x, 1.5, 0.7, 1.4, x, 1.3
13) O=C(/C=C/c1ccc(S(=O)(=O)N2CCOCC2)cc1)NCc1ccc(Cl)cc1
    u, 3.3, 1.2, 0.69, 4.8, i, -3.4
14) CC1(C)O[C@@H]2[C@H](O1)[C@@H](CO)O[C@H]2n1cnc2c(=O)[nH]cnc21
    x, -4.2, 0.4, x, 3.7, i, x
15) CCCN1C(=O)COc2ccc(-c3n[nH]c(=O)c4ccccc34)cc21
    -4%, -7.9, 0.5, 0.69, 2.8, i, -0.1
16) Cc1ccc2nc(-c3ccc(NC(=O)COC(=O)c4ccco4)cc3)sc2c1
    -60%, x, -0.7, 0.69, -74, x, 5.3
17) C=CCN1C(=O)C2(C(C(=O)c3ccc(C)o3)=C(O)C(=O)N2CCCN2CCOCC2)c2ccccc21 (stereo not drawn)
    5%, x, -2.5, 0.72, 6.5, x, -0.4
18) CCCCc1nc(N)c(C#N)c(-c2ccco2)c1CCC
    14%, -9.8, -0.4, 0.69, -64, i, 0.7
19) NC(=O)C1CCN(CC(=O)Nc2ccccc2C(=O)NC2CC2)CC1
    -8%, -1.3, 4.4, 0.68, -2.2, i, x
20) O=C(NC(=S)NCC1CCCO1)c1ccco1 (stereo not drawn)
    -6%, -3.0, 3.2, 0.68, -1.0, i, 7.7
21) COc1ccc(/C(O)=C2\C(=O)C(=O)N(Cc3ccco3)C2c2ccc(OC)cc2OC)cc1 (stereo not drawn)
    19%, x, 3.5, 0.7, 12, x, -1.0
22) CCOc1cc(C2C(C(=O)c3ccco3)=C(O)C(=O)N2CCc2ccccc2)ccc1O (stereo not drawn)
    6%, x, -4.8, 0.72, 10, x, -3.1
23) Fc1ccc2c(Cl)c(-c3nnc(-c4cccs4)o3)sc2c1
    2%, x, -2.6, 0.7, -127, x, 0.4
24) COc1ccc(CC(=O)NCC(C)(C)N2CCOCC2)cc1
    x, -6.1, 3.1, 0.67, -0.8, i, 2.2
25) Cc1ccc(C(C)C)cc1OCC(=O)NNC(=O)Nc1ccccc1
    -2%, -0.1, -0.5, 0.68, 3.7, i, u
26) COc1ccc(C2CC(=O)C(C=NCCO)=C(O)C2)cc1OC (stereo not drawn)
    -2%, x, 0.8, 0.66, 1.1, x, -0.9
27) CCOCCc1nnc(NC(=O)CSc2ccccc2)s1
    u, x, -0.8, 0.74, -1.9, x, 6.4
28) O=S(=O)(c1c(Cl)cc(Br)cc1Cl)N1CCN(C(=S)NC2CC2)CC1
    12%, 0.7, 3.7, 0.65, 1.0, i, x
29) COc1ccc(CNc2nc(NCc3ccc(OC)cc3)n(C(C)=O)n2)cc1
    -4%, x, 1.4, 0.74, -0.7, x, u
30) c1ccc(CCn2cccc2)nc1
    -4%, 2.7, 2.6, 0.65, 0.5, i, x
31) C#CCN(C(=O)c1cc(COc2ccc(C)c(C)c2)on1)C1CCCCC1
    18%, -0.1, 5.2, 0.74, 5.5, i, 0.1
32) COc1ccc(CCN(C)C(=O)CSc2nnnn2C)cc1OC
    u, -2.1, 7.3, 0.67, 1.3, i, u
33) CCCCN1C(=N)N([C@@H](C)CN2CCC[C@H]2CN2C(N)=NC[C@H]2CC(C)C)C[C@H]1[C@H](C)CC
    x, x, -4.3, x, -2.3, i, x
34) Cc1ccc(Oc2ncccc2C(=O)NC2CCSC2=O)cc1 (stereo not drawn)
    7%, -0.1, -1.1, 0.7, 2.2, i, -2.8
35) COc1ccc(C2(c3ccc(OC)cc3)NC(=O)N(CC(=O)NC3CCS(=O)(=O)C3)C2=O)cc1 (stereo not drawn)
    x, 4.1, 3.5, 0.69, 5.7, i, x
36) CC(C)NC(=O)c1ccc2c(c1)N(CC(=O)N1CCOCC1)C(=O)C(C)(C)O2
    -1%, x, 0.6, 0.67, 0.2, x, -1.5
37) Cn1nc(C(=O)Nc2cccc(S(N)(=O)=O)c2)c2ccccc2c1=O
    -2%, -4.4, 2.4, 0.71, -3.9, i, 2.8
38) CCC(=O)NC1OC(CO)C(O)C(O)C1O (stereo not drawn)
    -2%, -2.7, 0.6, 0.65, 1.6, x, 4.7
39) CCN(CC)CCn1c(=S)[nH]c2cc(Cl)ccc2c1=O
    -1%, x, 1.1, 0.6, 4.2, x, 1.6
40) CC(=O)c1ccc(NC(=O)C2CCCN(S(=O)(=O)c3cccc4nonc34)C2)cc1 (stereo not drawn)
    x, x, 2.7, 0.68, 0.7, x, 3.7

Single records (already shown). Order of values: Vif A3G, MLL AF4-AF9 inh, HNF4A DNA FP, Ecoli growth, UCH37 inh, FGF22 binding, RanGTP-Impb inh
CC(NC(=O)c1ccc(Br)cc1)C(=O)NC1=NCCS1 (stereo not drawn) reads -7%, -2.0, -1.2, 0.66, 2.3, i, 0.1
c1ccc(CCn2cccc2)nc1 reads -4%, 2.7, 2.6, 0.65, 0.5, i, x

Carrying on.
Sequence of screens: Vif A3G, MLL AF4-AF9 inh, HNF4A DNA FP, Ecoli growth, UCH37 inh, FGF22 binding, RanGTP-Impb inh
41) Cc1ccc(S(=O)(=O)CCN2CCN(c3ccccc3)CC2)cc1
    1%, 1.5, 1.1, 0.66, 2.3, i, 1.2
42) Cn1c(CNC(=O)c2ccco2)nnc1SCC(=O)Nc1ccc(Br)cc1F
    15%, x, 1.4, 0.67, 3.3, x, -2.0
43) Fc1ccccc1NC(=S)NCc1ccccc1
    6%, -20, -1.0, 0.71, 1.5, i, -1.3
44) O=C1N=C(N2CCCCC2)S/C1=C\c1cn[nH]c1-c1ccccc1
    -7%, x, 0.4, 0.68, 2.4, x, -2.6
45) CN(CCCn1cnc2c(OCc3ccccc3)ncnc21)CCc1ccccn1
    x, -0.6, -0.8, x, x, i, x
46) Cc1cc(C)c(C#N)c(SCCS(=O)(=O)c2ccc(C(C)(C)C)cc2)n1
    -51%, x, 1.2, 0.71, 1.5, x, -5.2
47) O=C1C=CC(=O)N1Cc1ccccn1
    3%, -6.2, 1.6, 0.7, 2.9, i, x
48) COc1ccc(CC2(CO)CCN(Cc3nc(C(C)C)cs3)CC2)cc1
    x, -7.9, -1.8, 0.66, -1.1, i, 1.0
49) S=C1NCCOCCOCCOCCOCCNC(=S)N2CCOCCOCCN1CCOCC2
    x, -3.0, -3.5, 0.59, 1.9, i, 1.2
50) CCOC(=O)c1ccc2c(c1)nc(-c1ccc(F)cc1)c1nccn12
    2%, -0.9, 2.9, 0.7, -217, i, -1.7
51) O=S(=O)(c1ccc(F)c(F)c1)N1CCN(c2ncccn2)CC1
    x, u, -0.9, 0.64, 0.3, i, 2.8
52) Clc1ccc(-c2cc(COc3ccccc3)no2)cc1Cl
    22%, x, -0.6, 0.74, 1.7, x, -3.2
53) Cc1ccc(S(=O)(=O)CC(=O)Nc2cc(C)on2)cc1
    x, -3.4, 6.3, 0.69, 4.3, i, -1.1
54) Fc1cccc(-c2cc3nc(-c4ccccc4)cc(N4CCC5(CC4)OCCO5)n3n2)c1
    3%, x, -0.7, 0.74, -144, x, 6.6
55) O=C(CSC1CN(C(c2ccccc2)c2ccccc2)C1)N/N=C/c1ccc(Cl)cc1Cl
    4%, -0.7, -1.1, x, x, i, 1.8
56) O=C(NNC1CC(=O)N(c2ccccc2)C1=O)c1ccc(COc2ccccc2Cl)o1 (stereo not drawn)
    x, -0.2, 2.6, 0.73, 1.6, x, x
57) CCn1cc(C(=O)NCCCN2CCCC(C)C2)c(=O)c2cc(S(=O)(=O)N3CCc4ccccc4C3)ccc21 (stereo not drawn)
    9%, 8.9, 1.6, 0.71, 7.8, i, -1.9
58) COC(=O)CSc1nnc(CNC(=O)Cc2ccccc2)n1-c1ccccc1OC
    78µM*, 10, 1.4, 0.72, -0.1, i, x
59) CCOC(=O)CC(C(=O)OCC)P(=O)(c1ccccc1)c1ccccc1 (stereo not drawn)
    5%, x, 2.0, 0.73, -2.5, x, -3.6
60) O=C1NC(=O)C(=Cc2ccc(Cl)cc2Cl)S1
    -13%, -4.0, 1.2, 0.59, 8.6, i, x
61) COc1cc(NC(=O)C2CC(c3ccccc3O)=NO2)c(OC)cc1Cl (stereo not drawn)
    x, -1.8, 1.4, 0.72, 2.1, i, -2.9
62) Cc1ccc(/C=C/C(=O)OCC(=O)c2ccc3c(c2)NC(=O)CO3)o1
    -4%, -1.6, 7.1, 0.67, 4.8, i, x
63) Cc1ccc(S(=O)(=O)Nc2ccc(N(C)C)cc2)cc1
    13%, 15, 0.4, 0.69, 6.8, i, 2.0
64) Cc1ccc(Cl)cc1N1CCN(C(=O)Cn2ncn3cccc3c2=O)CC1
    x, -12, -1.1, 0.65, 1.9, i, -0.5
65) CSc1oc(-c2ccco2)nc1S(=O)(=O)c1ccccc1
    31µM*, 2.5, 2.0, 0.72, 4.8, i, 6.5
66) Cc1ccc(S(=O)(=O)NNC(=S)NCC2CCCO2)cc1 (stereo not drawn)
    x, -1.9, -1.6, 0.64, 1.3, i, 1.4
67) COC(=O)c1cc(C)sc1NC(=O)C1CC(=O)NN1Cc1ccccc1 (stereo not drawn)
    x, 0.7, -3.8, 0.7, 0.4, x, 0.3
68) COc1ccccc1C1NC(=O)NC(C)=C1C(=O)OC1CCC(C)CC1 (stereo not drawn)
    x, 3.6, 5.2, 0.69, 0.1, i, 5.2

From PubChem

Not all compounds are listed; rates above refer to the full screens.
